Screening data from PubChem.
VDR inhibitor = blocks the human vitamin D receptor; VDR-SRC2-3 peptide fluorescence polarization, 2 h; Potency, µM, inactives show max response, negative = inhibition, usual class: inhibitors; 400,000 compounds, 0.93% hits; P11473; active = well fitted inhibition curve with a large enough effect; inconclusive = small, poorly fitted or top-dose-only effect, or another doubt; inactive = no such curve, though single readings can be large or run the other way; also: series mostly up to about 120 µM
Target sequence (P11473 whole entry, looked up): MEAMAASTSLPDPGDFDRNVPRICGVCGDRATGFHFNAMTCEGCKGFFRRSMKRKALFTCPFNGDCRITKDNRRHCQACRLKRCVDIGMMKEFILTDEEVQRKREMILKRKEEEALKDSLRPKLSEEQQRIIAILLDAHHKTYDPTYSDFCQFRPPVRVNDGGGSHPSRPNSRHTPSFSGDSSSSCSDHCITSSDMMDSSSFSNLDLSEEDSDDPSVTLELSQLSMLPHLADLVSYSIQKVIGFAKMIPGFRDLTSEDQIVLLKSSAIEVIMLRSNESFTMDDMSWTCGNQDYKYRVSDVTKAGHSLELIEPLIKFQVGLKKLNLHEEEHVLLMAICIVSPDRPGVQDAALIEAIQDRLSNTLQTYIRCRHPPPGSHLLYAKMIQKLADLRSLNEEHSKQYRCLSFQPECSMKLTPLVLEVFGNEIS
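Two reagent solutions held at 4 deg C in the dark were dispensed, compounds pinned at 23 nl, and the mixture incubated 2 h at room temperature. Read-out: fluorescence polarization of VDR–SRC2-3 peptide binding.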
Numbers without * were called inactive; ? = inconclusive; & = joins results of further samples; [ ] = remark or other dose. % is scaled to controls: 0 for no effect and ±100 for the full control effect; potency is read from the fitted curve at half-maximal effect. Some of the compounds tested; the hit share may differ from the screen's.

molecule | VDR inhibitor
COc1ccc(C2N(S(=O)(=O)c3ccc(C)cc3)CCN2S(=O)(=O)c2ccc(C)cc2)cc1 | 14.4%
CCOC(=O)c1cccc(N2CC3CNC(=O)C2(C(=O)OC)N3C)c1 (centres undefined) | -15.5%
CCn1c(COc2ccccc2C)nnc1SCC(=O)NC1CCCC1 | 8.2%
CNS(=O)(=O)c1cc(NC(=O)c2cccc3cccnc23)ccc1C | 1.8%
COc1ccccc1N1C(=O)CC(Nc2ccc(N3CCOCC3)cc2)C1=O (centres undefined) | -5.5%
Clc1ccc(-c2noc(CN3CCOCC3)n2)cc1 | -6.8%
Cc1ccc(S(=O)(=O)N2CCC[C@H]2C(=O)OCC(=O)N2CCc3ccccc32)cc1 | 2.0%
Fc1ccc(C(c2nnnn2CCc2ccccc2)N2CCCc3ccccc32)cc1 (centres undefined) | -2.1%
CCN(CC)C(=O)CSc1cn(CC(=O)N2CCCCCC2)c2ccccc12 | 2.1%
COc1ccc(CCNC(=O)c2nn(C)c3c2CS(=O)(=O)c2ccccc2-3)cc1OC | -0.6%
CCC(CCCO)CCC[C@H](C)CCC1OCCO1 (some centres undefined) | 0.9%
COc1ccc(CCN(C)C(=O)/C=C/c2c(Cl)nc3ccccn23)cc1OC | 2.5%
COc1ccc(Cl)cc1NC(=O)CSc1cc(C)[nH]c(=O)n1 | 10.8%
Cc1c(C(=O)N2CCN(c3ccccn3)CC2)oc2ccccc12 | -21.2%
COc1ccc(C(C(=O)NCc2ccc(F)cc2)N(C(=O)c2csnn2)C2CC2)cc1 (centres undefined) | 21.6%
Cc1ccc(-c2csc(-c3cc4c([nH]c3=O)CC(c3ccccc3)CC4=O)n2)cc1 (centres undefined) | 3.1%
NC(=O)c1ccsc1NC(=O)COC(=O)C1CC2CCCC(C1)C2=O (centres undefined) | 26.8%
CCN(Cc1nc2ccccc2c(=O)[nH]1)C(=O)c1ccc(C)c(NC(=O)c2ccco2)c1 | 2.0%
COc1ccc(C(F)(F)F)cc1NC(=O)c1nc2nc(C)cc(C(F)F)n2n1 | 1.4%
C=CC[C@@H](CC(=O)OC(C)(C)C)C(=O)OC[C@H]1CCCN1C(=O)[C@@H](CC=C)CC(=O)NCCO | 3.2%
O=C(COC(=O)c1cccc2ccccc12)NCCCc1ccccc1 | -11.1%&-7.9%
CCOC(=O)c1ccc(-c2n[nH]c(=O)c3ccccc23)cc1 | -4.1%
COC(=O)Cc1c(C)c2ccc(OC3CCCCC3=O)cc2oc1=O (centres undefined) | 7.7%
Cc1cccn2c(=O)nc(SCC(=O)NCc3ccccc3Cl)nc12 | -2.3%
COc1cc(OC)c([N+](=O)[O-])cc1/C=N/NC(=O)c1ccncc1 | -7.2%
O=C(NCc1ccccn1)c1nc(-c2cccs2)no1 | -8.6%
CC(C)(C)OC(=O)N/N=C\c1ccc([N+](=O)[O-])s1 | 3.0%
Cc1ccc(C(=O)O/N=C/c2c(C(F)(F)F)nn(C)c2Sc2ccc(Cl)cc2)cc1 | -4.4%
COc1ccc(CNC(=O)c2cc(-c3cccc(Cl)c3)on2)cc1 | 1.7%
COc1cc(CN2CCN(Cc3ccc(C)cc3)C(CCO)C2)ccc1O (centres undefined) | 4.5%
COc1cccc(C(=O)NC2CC3CCC(C2)N3Cc2ccccc2)c1 (centres undefined) | -2.4%
Cc1cc(=O)oc(C)c1C(=O)N1CCCCC1 | -11.5%
C/C(=C\c1ccccc1)CN1CCN(Cc2ccc(C)o2)C(CCO)C1 (centres undefined) | -13.2%
NC(=O)c1ncn([C@@H]2O[C@H](CNC(=O)[C@@H](N)Cc3cccnc3)[C@@H](O)[C@H]2O)n1 | -8.2%
Cc1cc2ccccc2n1CCNC(=O)c1cccc(Cl)c1 | -28.7%
COc1ccc(NS(=O)(=O)Cc2ccccc2)cc1OC | -2.7%
Cc1ccccc1Cn1c2ccccc2c2cnn(CC(=O)NCC(C)c3ccccc3)c(=O)c21 (centres undefined) | 14.0%
CCOc1ccc(-c2c(C(=O)N/N=C/c3cccs3)nnn2-c2nonc2N)cc1 | -7.4%
Cc1cc(C)c2c(CC(=O)O)coc2c1 | 13.4%
CCOC(=O)N1CCc2c(sc3c2c(=O)n(CCc2ccccc2)c(=O)n3CC(=O)Nc2cccc(C)c2)C1 | 9.7%
COC(CNC(=O)c1ccc2c(c1)nc(C)n2-c1ccc(F)c(F)c1)OC | -14.6%
COCC1CCN(C(=O)C2CCC(=O)N(CC3CCCCC3)C2)CC1 (centres undefined) | 0.8%
CCC1CN(C(=O)N2CCC(C(=O)Nc3ccccc3F)CC2)c2ccccc2O1 (centres undefined) | 7.7%&17.0%
N#Cc1nc(COc2ccc(Cl)cc2Cl)oc1N1CCN(c2ccccc2)CC1 | 26.3%
Cc1ccn2c(=O)c(C(=O)NCCc3ccccc3)c(O)nc2c1 | -7.6%
O=c1c2cc3c(nc2ncn1Cc1ccc(Cl)cc1)CCCC3 | 2.1%
N#C/C(=C/Nc1ccccc1C(=O)O)C(N)=O | -7.9%
CCOc1ccc2nc(NS(=O)(=O)c3ccc4c(c3)n(C)c(=O)n4C)sc2c1 | 3.9%
O=C(NC1CCCC1)C(c1ccco1)N(C(=O)c1ccco1)c1ccccc1 (centres undefined) | -6.8%
Cc1nn(Cc2c(Cl)cccc2Cl)c(Cl)c1/C=C/C(=O)OCC(=O)NCC(F)(F)F | 5.3%
CCCCCNC(=O)N[C@H](C(=O)O)C(C)C | -7.2%
C=CCN1C(=S)N[C@@H]2CS(=O)(=O)C[C@@H]21 | -9.6%
O=C(C[C@@H]1C/C=C\C[C@H](NC(=O)OCC2c3ccccc3-c3ccccc32)C(=O)OC[C@@H]2CCCN2C1=O)NCCO | 4.6%
CCOC(=O)c1cc2c3ccccc3n(CC)c2nc1N | -8.0%
COc1ccc(N=Nc2cnc(C)nc2-c2ccccc2)cc1 | 0.2%
COc1cc(Cl)c(C)cc1NC(C)C(=O)Nc1cc(C(F)(F)F)ccc1N1CCOCC1 (centres undefined) | 1.0%
CCC(=O)Nc1cc(=O)[nH]c2ncnn12 | -6.8%
Cn1nc(C(=O)Nc2ccc(Br)cc2)cc1C(=O)Nc1ccc(Br)cc1 | -13.7%
COc1ccc(OC)c(NC(=O)c2cc(S(=O)(=O)N(C)C)ccc2N2CCCC2)c1 | 14.0%
CCOc1ccc(CCN2C(=O)c3ccc(C(=O)O)cc3C2=O)cc1OCC | 2.1%

(further entries)
molecule | VDR inhibitor
CN(CCc1ccccn1)C(=O)c1cccnc1Oc1ccc(Cl)cc1 | -9.8%
COc1ccc(-c2nnn(CC(=O)N(Cc3ccccc3Cl)C(C(=O)NCC3CCCO3)c3ccco3)n2)cc1 (centres undefined) | 1.9%
COc1cc(-c2cc(C(=O)NCc3ccco3)c3ccccc3n2)cc(OC)c1OC | -3.4%
O=C(CCCn1c(SCc2cc(=O)n3cc(Cl)ccc3n2)nc2ccccc2c1=O)NCC1CCCO1 (centres undefined) | -14.9%
O=C(O)c1cccc2c1Oc1ccccc1S2(=O)=O | -3.9%
CC[C@@]12C(=O)N(c3ccc(C)cc3)C(=O)N1[C@H](c1ccc(OC)cc1)[C@@H]1C(=O)N(C(C)(C)C)C(=O)[C@@H]12 | 6.1%
COc1ccc(N(C(=O)c2cc3ccccc3oc2=O)C2C=CS(=O)(=O)C2)cc1 (centres undefined) | -7.7%
N#Cc1ccc(NC(=O)COC(=O)CNC(=O)C2CCCCC2)cc1 | 1.4%
O=C(CC1CCCCC1)N=C1SC2CS(=O)(=O)CC2N1c1ccccc1 (centres undefined) | -14.1%
Cc1ccc(S(=O)(=O)NC(=O)NC2CCCC2)cc1 | 2.0%
CCOC(=O)c1ccc(CN2C(=O)c3ccccc3S2(=O)=O)cc1 | 7.7%
O=c1[nH]cnc2c1sc1nc(C(F)F)cc(-c3ccccc3)c12 | -1.2%
C=C(C)COc1ccc(-c2nc(N)nc(C)c2Oc2ccccc2OC)c(O)c1 | -9.2%
O=C(CCC(=O)N1CCSc2ccccc21)NCc1ccccc1Cl | -7.1%
O=C(CSc1nnc2c(Cl)cc(Cl)cn12)N1CCN(c2ccc(F)cc2)CC1 | -11.9%
C=CCn1c(O)c(N=NC(=O)c2ccccc2NS(=O)(=O)c2cccs2)c2ccccc21 | -7.5%
CCOC(=O)c1ccccc1NS(=O)(=O)c1ccc(OCC)cc1 | 9.3%
CSc1ccc(/C=c2\s/c(=C\C(=O)C(C)(C)C)n(CC(=O)NCCC3=CCCCC3)c2=O)cc1 | 39.8%[activator]
O=C(c1ccc(C(F)(F)F)cc1)C1CCCN(C(=O)CCc2ccncc2)C1 (centres undefined) | 4.8%
CN(CC(=O)NCCN1CCN(c2ccccc2)CC1)S(=O)(=O)c1ccc2c(c1)CCC(=O)N2 | -18.8%
COc1cc(C(=O)NCC(=O)NC(C)c2ccc(-n3ccnc3)cc2)cc(OC)c1OC (centres undefined) | -17.0%
CCN(C(=O)CSc1nnc(SC(C)C)s1)C1CCS(=O)(=O)C1 (centres undefined) | 4.4%
CCOC(=O)c1cc(C(=O)c2cccs2)n2ccc(C(C)=O)cc12 | 33.7%[activator]
CC(C)N(C)C(=O)C(=O)c1cccn1-c1cccc(Cl)c1C#N | -1.0%
O=C(NCc1ccco1)C1CC(=O)N(CCc2ccccc2)C1 (centres undefined) | -9.1%
CSc1ccc(C(C(C(=O)c2cccs2)N2CCOCC2)N2CCOCC2)cc1 (centres undefined) | 0.2%
Cc1c(-c2csc(N)n2)c2ccccc2n1C | 14.9%
CS(=O)(=O)n1nc(-c2ccco2)nc1N | -14.3%
COc1ccc(OC)c(C2=NOC(C(=O)Nc3ccc4c(c3)OCCO4)C2)c1 (centres undefined) | -0.5%
O=c1cc(N2CCCCCC2)[nH]c(=O)n1-c1ccc(Cl)cc1 | -16.6%
CN(C)/C=C1/Nc2ccccc2C1=O | ?
S=c1[nH]cc(-c2ccccc2)[nH]1 | -22.9%
CCC(=NN=C(CC)c1ccccc1O)c1ccccc1O | -0.2%
COc1ccc(CNC(=O)CC2C[C@H](C(=O)N3CCCCC3)[C@@]3(C)c4[nH]c5ccccc5c4CCN3C2=O)cc1OC (some centres undefined) | -7.4%
CC(CNC(=O)CN1C(=O)COc2ccc(S(=O)(=O)N3CCCCC3)cc21)c1ccccc1 (centres undefined) | -13.1%&-5.0%
CCN1CCN(C(=O)c2ccc(Cl)c(S(=O)(=O)N3CCCCC3)c2)CC1 | -4.7%
COc1ccccc1Nc1nc(Cl)nc(Nc2ccccc2OC)n1 | -13.3%
CCN(CC)CCNC(=O)C1(O)c2cc(Br)ccc2NC(=O)N1c1ccccc1 (centres undefined) | -10.7%
COc1ccccc1CNC(=O)CCC(=O)N1CC2CCCN2c2ccccc21 (centres undefined) | 15.7%
O=C(CN1C(=O)C(=O)N(Cc2ccco2)C1=O)c1c[nH]c2ccccc12 | -19.9%
Cc1occc1-c1nnc(SCC(=O)Nc2ccccc2N2CCCCC2)n1C | 8.2%
CCOC(=O)c1c(S(=O)(=O)NCC(=O)Nc2ccccc2)c(C)n(C)c1C | -0.2%
COc1ccc(OC)c(NC(=O)COC(=O)/C=C/c2ccc(Cl)cc2)c1 | -23.4%
Cc1cccc(N=N/C(=C\O)C(=O)c2cccs2)c1 | 4.0%
Cc1cc2ccccc2c(=O)n1CC(=O)NCC1COc2ccccc2O1 (centres undefined) | 22.0%
COc1ccccc1CNC(=O)CCCn1nc(C)c2c(C)n(-c3ccc(C)cc3)nc2c1=O | -3.9%&-4.1%
COc1ccc(S(=O)(=O)Nc2ccc3c(c2)sc(=O)n3C)cc1Cl | 20.5%
Cc1cc(C)c(S(=O)(=O)Nc2nnc(CC(C)C)s2)c(C)c1 | -6.2%
CCOC(=O)N1CCN(S(=O)(=O)c2ccc(OC)cc2)CC1 | -11.3%
COC(=O)C1CCCCN1C(=O)c1cc(COc2cccc3cccnc23)on1 (centres undefined) | -0.8%
CN(C)CCCN(C(=O)COc1ccc(Cl)cc1)c1nc2cc3c(cc2s1)OCO3 | -8.0%
COc1ccccc1NS(=O)(=O)c1ccc(C(=O)NCCCN2CCCC2=O)cc1 | -21.9%
C=CCNC(=S)N/N=C(\C)c1cccc(OC)c1 | -1.0%
CN(C)CCCNc1ncnc2oc(-c3ccccc3)c(-c3ccccc3)c12 | -14.2%
COc1ccc(CCC(=O)N2CCCC(Nc3ccc(OC)cc3)C2)cc1 (centres undefined) | 1.7%
